GIV-Gai inh = GIV-Galpha-i interaction inhibition; P08753; Galpha-i3/FITC-GIV peptide fluorescence polarization, 90 min; active compounds read low; scaled: aluminum fluoride 0%, vehicle 100%; percent of control (FP), % (concentration not given with the values); 210,000 compounds, 0.42% hits;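 active means replicate mean at 85% of control or lower, very high polarization wells dropped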;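 further: wells of about 15 µL received 100 nL stock; the first replicate is given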
Target sequence (P08753 whole entry, looked up): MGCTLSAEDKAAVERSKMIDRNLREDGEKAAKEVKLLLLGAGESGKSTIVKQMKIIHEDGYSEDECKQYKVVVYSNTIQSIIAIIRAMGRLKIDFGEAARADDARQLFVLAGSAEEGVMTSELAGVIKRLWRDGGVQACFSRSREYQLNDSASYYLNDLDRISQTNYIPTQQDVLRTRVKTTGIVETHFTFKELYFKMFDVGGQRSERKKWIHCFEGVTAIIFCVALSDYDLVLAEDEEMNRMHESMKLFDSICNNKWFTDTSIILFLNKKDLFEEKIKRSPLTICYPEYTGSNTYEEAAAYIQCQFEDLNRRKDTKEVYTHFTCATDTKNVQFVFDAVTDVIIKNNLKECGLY
Numbers without * were called inactive. These rows are one share of the data; rates above refer to the full screens.

Structure	GIV-Gai inh
O=C(Nc1ccccc1F)c1nnc(C2CCN(C(=O)C3CCC3)CC2)s1	104.8
O=C(c1cnccn1)N1CCN(c2nc(-c3ccc(Cl)cc3)no2)CC1	104.2
CCSc1nnc(-c2nn(C)c3c2CN(S(=O)(=O)c2cccc(F)c2)CC3)n1CC	101.5
CCOc1ccc(C2c3[nH]c4ccccc4c3CCN2C(=O)c2cccs2)cc1 (centres undefined)	105.2
Cc1ccccc1N1CCN(S(=O)(=O)c2ccc(-c3nnc(C4CC4)o3)o2)CC1	104.0
O=C(O)CCC1=C2c3ccccc3CCN2C(=O)CC1	104.2
O=C(CCc1nc(CSc2nc(-c3ccc(F)cc3)cs2)no1)Nc1cc(F)cc(F)c1	100.0
O=C(Nc1ccccc1Cl)c1ccc(F)c(S(=O)(=O)N2CCN(Cc3ccc4c(c3)OCO4)CC2)c1	107.4
COc1ccccc1CNC(=O)C1CCCN(C(=O)C2Sc3ccccc3NC2=O)C1 (centres undefined)	99.8
CCOc1cc(/C=C2\C(=O)N(c3ccc(S(N)(=O)=O)cc3)N=C2C)cc([N+](=O)[O-])c1O	105.1
COc1ccc(COC(=O)C2=C(C)NC3=C(C(=O)CCC3)C2c2cc(OC)c(OC)cc2OC)cc1 (centres undefined)	113.8
CCOC(=O)CC(=O)CSc1nc2cc(C(=O)OC)ccc2c(=O)n1CCc1ccc(S(N)(=O)=O)cc1	122.1
CC(=O)N1CCC(CC(=O)N(C)CC2(C)CCOCC2)CC1	102.6
CC(C)c1ccc(-c2nn3c(=O)c(NC(=O)c4ccccc4Cl)cnc3o2)cc1	104.3
CCCS(=O)(=O)c1c(S(=O)(=O)CCC)c2ccccn2c1C(=O)c1ccc(C)cc1	106.9
CC(=O)N1CCC(C(=O)Nc2cc(-c3nnc(C4CC4)o3)sc2C)CC1	99.4
COC(=O)c1ccc2c(=O)n(CC3CCCO3)c(SCC(=O)NCCc3ccc(S(N)(=O)=O)cc3)nc2c1 (centres undefined)	103.3
O=C(CCc1c[nH]c2ccccc12)Nn1c(SCC(=O)c2ccc(F)cc2)nc2ccccc2c1=O	106.3
CCNc1cc(C)nc(N2CCN(C(C)=O)CC2)n1	105.5
Cc1nnc(NC(=O)CCc2nc(CSc3nc4ccccc4[nH]3)no2)s1	104.6
COc1ccc(C2C(C#N)=C(N)N3C(=C2C#N)Sc2ccccc23)cc1 (centres undefined)	114.9
CCOC(=O)CSc1nnc2c3ccccc3nc(-c3ccc(OC)cc3)n12	102.9
O=C(NNc1cccc2ccccc12)C(O)(c1ccccc1)c1ccccc1	105.2
CCCCn1c(CNC(=O)c2ccccc2F)nnc1SC(C)C(=O)Nc1sc(C(=O)OCC)c(C)c1C(=O)OCC (centres undefined)	105.6
COc1ccc(NC(=O)Cn2ncn3nc4c(c3c2=O)CCCC4)cc1OC	102.9
CCCC[n+]1c(/C=C/C=C2\N(CC)c3ccc(C(=O)OCC)cc3N2CCCS(=O)(=O)[O-])n(CC)c2cc(C(=O)OCC)ccc21	149.1
CCN(CCCNC(=O)c1cccn2c(=O)c3ccccc3nc12)c1cccc(C)c1	102.0
CCNS(=O)(=O)c1cc(-c2nc(C)cs2)n(C)c1C	105.2
CCc1nnc2c(C)nc3ccccc3n12	103.7
COc1ccccc1N1CCN(S(=O)(=O)c2ccc(F)c(C(=O)Nc3ccc(C(C)C)cc3)c2)CC1	108.0
COc1ccc(-c2nc(Cn3c(=O)c4c(C)cc(C)nc4n(-c4ccccc4)c3=O)c(C)o2)cc1	104.7
CC1(C)CC(=O)C2=C(C1)c1c(ccc3ccccc13)NC2c1ccc(O)c(O)c1 (centres undefined)	107.3
CCN(CC)C(=O)CSc1nnc2c3ccccc3nc(-c3ccc(C)cc3)n12	105.6
CCC(=O)Nc1cccc(-c2noc(C3CCCN(C(=O)c4ccc(NC(C)=O)cc4)C3)n2)c1 (centres undefined)	109.0
CC(C)(C)C1CCc2c(sc3[nH]c(=S)n(C4CCCCC4)c(=O)c23)C1 (centres undefined)	106.4
COc1ccc(CNC(=O)c2nc(-c3ccc(S(=O)(=O)N4CCOCC4)cc3)no2)cc1	103.2
Cc1ccccc1OCCSc1nnc(-c2ccc3c(c2)OCCCO3)n1C	107.1
Cc1nc(-c2cc(S(=O)(=O)Nc3ccc(F)cc3Cl)c(C)s2)sc1C	100.3
Cn1c(=O)n(CCC(=O)N2CCCC2)c(=O)c2cc(S(=O)(=O)Nc3cccc(Cl)c3)ccc21	113.2
COc1ccc(S(=O)(=O)N2CCC(n3cnc4c(Cl)cccc4c3=O)CC2)cc1OC	111.5
O=c1n(Cc2ccc(Cl)cc2)nc2c(S(=O)(=O)N3CCCCCC3)cccn12	100.6
COCC1=C(C(=O)OC)C(c2ccco2)C(C#N)=C(N)O1 (centres undefined)	114.5
O=[N+]([O-])c1cccc(-c2nc(-c3ccc(-c4[nH]c(-c5cccc([N+](=O)[O-])c5)nc4-c4ccccc4)cc3)c(-c3ccccc3)[nH]2)c1	104.4
CCOC(=O)c1c(NC(=S)NCc2ccccc2)sc2c1CC(C)(CC)OC2 (centres undefined)	109.7
O=C(CN1C2=NCCCN2c2ccccc21)c1ccc(Br)cc1	112.1
COc1ccc(OC)c(N2CC(O)(c3ccc(Cl)cc3)[N+]3=C2SCCC3)c1 (centres undefined)	103.2
COc1ccc([N+](=O)[O-])cc1NC(=O)c1sc2nc(C)nc(N3CCC(C)CC3)c2c1C	108.9
CCCn1nnc2cc(-c3noc(/C=C/c4ccc(OC)c(OC)c4)n3)ccc21	97.5
O=c1/c(=C/c2ccc([N+](=O)[O-])cc2)sc2n1C(c1ccccc1)C(c1ccccc1)=NN=2 (centres undefined)	109.9
Cn1c(N2CCC(C(=O)Nc3ccc(F)c(Cl)c3)CC2)cc(=O)n(C)c1=O	102.4

Later entries
Structure	GIV-Gai inh
CC(=O)Nc1ccc(NC(=O)CSc2nnc(C(C)N3C(=O)COc4ccccc43)n2C)cc1 (centres undefined)	98.6
CCOC(=O)C1=C(N)OC2=C(C(=O)CC(C)(C)C2)C1c1ccc(Cl)cc1 (centres undefined)	103.7
CSC1=NC(=Nc2cccc(C(F)(F)F)c2)C2(CCCCC2)N1c1ccc(Br)cc1	107.5
CCCCS(=O)(=O)N1CC(c2nc(C)no2)C2(CCOCC2)C1 (centres undefined)	98.2
O=S1(=O)CC(c2ccc(Cl)cc2)CS(=O)(=O)C1	122.1
COc1ccc(/C=C2\N=C(c3ccc(Cl)c([N+](=O)[O-])c3)OC2=O)c(OC)c1OC	103.9
Cn1c(CNC(=O)c2ccccc2F)nnc1SCC(=O)N1N=C(c2ccc(Br)cc2)CC1c1ccc(F)cc1 (centres undefined)	116.4
CCCn1c(SCc2nc(-c3ccc4c(c3)OCO4)no2)nc2cc3c(cc2c1=O)OCO3	104.0
O=C(Cc1ccc(Cl)cc1)N1CCN(c2ccc(Nc3ccccc3)nn2)CC1	103.8
O=C(NCC1CC1)C1CC(=O)N(c2ccc3c(c2)CCN3C(=O)C2CCC2)C1 (centres undefined)	94.1
Cc1cc(C)c2c(c1)-c1c(sn(-c3ccc(Br)cc3)c1=S)C(C)(C)N2	102.6
CCOc1cc(C2C(C(=O)OC)=CN(Cc3ccc(OC)cc3)C=C2C(=O)OC)cc([N+](=O)[O-])c1O	101.3
COCCCNC(=O)c1sc2ncnc(N3CCN(c4ccccc4OC)CC3)c2c1C	111.0
COc1ccc([C@@H]2C(C#N)=C(N)S[C@H]2C(=O)c2ccc(C)cc2)cc1	102.0
Cc1c(C(=O)NC2CCCCC2)sc2ncnc(N(C)C3CCCCC3)c12	106.2
COc1ccc(C2SCCN2S(=O)(=O)c2ccc(I)cc2)cc1OC (centres undefined)	102.1
CCn1ccc(C(=O)N2CCC(Nc3ncnc4c3CCC4)CC2)n1	101.9
Cc1nc2sccn2c(=O)c1NC(=O)c1ccc(F)c(F)c1	105.3
CCOc1cc(-c2nc3sc4c(c3c(=O)[nH]2)CCCC4)cc(Cl)c1OCc1ccccc1F	104.6
Cc1ccc(/C(O)=C2\C(=O)C(=O)N(c3nncs3)C2c2ccc(F)cc2)cc1 (centres undefined)	113.8
CCOC(=O)CC(=O)CSc1nn2c(=O)c(C)nnc2s1	108.7
CC1(C(=O)NCc2ccco2)CC2c3ccccc3C1c1ccccc12 (centres undefined)	103.9
CC1CCc2c(sc(NC(=O)c3ccc(S(=O)(=O)N4CCc5ccccc54)cc3)c2-c2nc3ccccc3s2)C1 (centres undefined)	109.2
COC(OC)C12c3ccccc3C(c3ccccc31)C1C(=O)N(c3ccc(Br)cc3)C(=O)C12 (centres undefined)	114.2
COc1ccc(-c2nc(-c3ccc4sc5ccccc5c4c3)c(-c3ccccc3)[nH]2)cc1OC	108.6
CC(C)Oc1ccccc1NC(=O)CSc1nc2sc3c(c2c(=O)n1C)CCCC3	116.5
COc1ccc(C=Nc2c(C)n(C)n(-c3ccccc3)c2=O)cc1OC	102.3
Cn1c(NC(=O)c2cc(Br)ccc2Cl)cc(=O)n(C)c1=O	101.9
Cc1ccnc2c1C(=Nc1ccccc1)c1ccccc1-2	116.6
CCSc1nc2ccc(NS(=O)(=O)c3cccc(Cl)c3)cc2s1	104.4
CCNc1nc(NCC)n2c(SCC(=O)c3ccccc3)nnc2n1	110.3
Cc1cc(=O)oc2c(C)c3oc(C(=O)c4ccc(Cl)cc4)c(C)c3cc12	107.7
Cc1ccc2c(nc3s/c(=C\c4ccc(-c5ccccc5C(=O)O)o4)c(=O)n32)c1C	132.3
Cn1c(=O)c(=O)n(CC(=O)NCc2ccc3c(c2)OCO3)c2cccnc21	103.4
COC(=O)C(NC(=O)c1ccc(OC)cc1)(Nc1sc2c(c1C#N)CCC(C)C2)C(F)(F)F (centres undefined)	112.2
N#Cc1c2c(c(N3CCCC3)n3c1nc1ccccc13)CCC2	119.4
Cc1ccc(-c2ccc(-n3nc(C)c(S(=O)(=O)NC(C)C)c3C)nn2)cc1	109.8
COCCCNC(=O)CSc1nc(NCCc2ccccc2)c2ccccc2n1	115.7
Cn1c(=O)c(C(=O)Nc2ccc(F)cc2)nc2ccccc21	100.5
CCC(=O)N1CCc2cc(N3CC(C(=O)NC(C)CC)CC3=O)ccc21 (centres undefined)	103.2
CCn1c(SCC(=O)Nc2nccs2)nnc1-c1cn(C)nc1-c1ccc(Cl)cc1	102.6
Cc1ccccc1N/C(SCc1cccc(Br)c1)=C(/C#N)C(=O)NCc1ccco1	104.7
CSCCOC(=O)C1=C(C)NC(=O)NC1c1cccc(OCc2ccccc2)c1 (centres undefined)	95.9
O=C(C1CCCN(S(=O)(=O)c2cccc3cccnc23)C1)N1CCN(c2ccccc2F)CC1 (centres undefined)	100.6
CCOC(=O)c1[nH]c2ccc(F)cc2c1NC(=O)CNc1nccs1	115.4
O=C1c2ccccc2-c2ccc(-c3nc(-c4ccc(O)c(O)c4)[nH]c3-c3ccccc3)cc21	109.1
COc1ccc(CN2CCN(c3ncnc4scc(-c5ccccc5)c34)CC2)cc1F	109.1
CCC(=O)Nc1sc2c(c1C(=O)Nc1cccc(Cl)c1)CCC2	111.2
O=C(NC1CC1)c1ccc2c(c1)CCN2C(=O)C1CCC1	99.2
COC(=O)C1=CN(c2ccc3c(c2)OCCO3)c2cc(Br)ccc2S1(=O)=O	106.6

Reformatted: results already given.
molecule: COC(=O)C1=CN(c2ccc3c(c2)OCCO3)c2cc(Br)ccc2S1(=O)=O
  GIV-Gai inh: 106.6

molecule: CCNc1nc(NCC)n2c(SCC(=O)c3ccccc3)nnc2n1
  GIV-Gai inh: 110.3

4 compounds picked at random from the list so far, as already listed:
Structure	GIV-Gai inh
CCN(CC)C(=O)CSc1nnc2c3ccccc3nc(-c3ccc(C)cc3)n12	105.6
CCNc1cc(C)nc(N2CCN(C(C)=O)CC2)n1	105.5
O=c1/c(=C/c2ccc([N+](=O)[O-])cc2)sc2n1C(c1ccccc1)C(c1ccccc1)=NN=2 (centres undefined)	109.9
CC(C)Oc1ccccc1NC(=O)CSc1nc2sc3c(c2c(=O)n1C)CCCC3	116.5

New compounds follow.
Structure	GIV-Gai inh
O=C(Cc1ccc(F)cc1)Nc1ccc(-c2cn3c(C(=O)N4CCCC4)csc3n2)cc1	102.0
COc1ccc(Nc2nc(NN)nc(OCC(F)(F)F)n2)cc1	109.1
CCOCc1nc(N2CCCC2)sc1C(=O)Nc1ccc(OC)cc1	101.1
O=C(O)CCCNS(=O)(=O)c1cccc2nsnc12	112.3
Cc1ccc(N2C(=O)/C(=C/c3ccc(Cl)cc3)C=C2c2ccccc2)c(C)c1	140.8
O=C(NCCN1CCOCC1)c1cc(-c2ccc(F)cc2)nc2ccc(Br)cc12	101.7
CCN(CC)c1cc(Nc2ccc(Br)cc2Br)c([N+](=O)[O-])c2nonc12	122.8
Cc1ccc(-n2ccc(=O)c(-c3nc(-c4ccc(Br)cc4)no3)n2)cc1	98.1
Cc1ccc(Cc2nc3ccccc3nc2SCC(=O)N2CCNC2=O)cc1	106.6
CC(=O)n1c2c(c3ccccc31)OC(N)=C(C#N)C2c1ccc(Cl)cc1 (centres undefined)	105.5
CC(C)(C)c1cc(Sc2nnc(-c3ccc(Cl)cc3)c3ccccc23)cc(C(C)(C)C)c1O	109.7
CCCCCn1c(SCC(=O)NCCc2ccccc2)nc2cc(C(=O)N3CCC(C(N)=O)CC3)ccc2c1=O	107.1
CCOC(=O)CC(=O)CSc1nc2c(sc(=S)n2-c2ccccc2)c(=O)[nH]1	110.3
CCN(CC)c1nc2nonc2nc1Nc1cccc(Br)c1	107.2

Bioassay records as filed in PubChem BioAssay.
